Screens deposited in PubChem BioAssay by several laboratories.
PABP FP inh: blocks human PABP binding to poly(A) RNA; P11940; fluorescence polarization; inhibition, % at 35 µM; 290,000 compounds, 1% hits;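 active = 50% or more with normal probe brightness, or confirmed in later tests; inconclusive = above 50% with abnormal brightness, or retests that disagree; inactive = below 50% or failed in later tests; about a fifth of its hits are not listed in these tables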;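 also: calls also rest on retests at 20 µM and on dose response follow-up; controls were probe without protein and protein plus probe with vehicle; some compounds called inactive have numbers as strong as hits; many hits fall short of the cut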
Target sequence (P11940 whole entry, looked up): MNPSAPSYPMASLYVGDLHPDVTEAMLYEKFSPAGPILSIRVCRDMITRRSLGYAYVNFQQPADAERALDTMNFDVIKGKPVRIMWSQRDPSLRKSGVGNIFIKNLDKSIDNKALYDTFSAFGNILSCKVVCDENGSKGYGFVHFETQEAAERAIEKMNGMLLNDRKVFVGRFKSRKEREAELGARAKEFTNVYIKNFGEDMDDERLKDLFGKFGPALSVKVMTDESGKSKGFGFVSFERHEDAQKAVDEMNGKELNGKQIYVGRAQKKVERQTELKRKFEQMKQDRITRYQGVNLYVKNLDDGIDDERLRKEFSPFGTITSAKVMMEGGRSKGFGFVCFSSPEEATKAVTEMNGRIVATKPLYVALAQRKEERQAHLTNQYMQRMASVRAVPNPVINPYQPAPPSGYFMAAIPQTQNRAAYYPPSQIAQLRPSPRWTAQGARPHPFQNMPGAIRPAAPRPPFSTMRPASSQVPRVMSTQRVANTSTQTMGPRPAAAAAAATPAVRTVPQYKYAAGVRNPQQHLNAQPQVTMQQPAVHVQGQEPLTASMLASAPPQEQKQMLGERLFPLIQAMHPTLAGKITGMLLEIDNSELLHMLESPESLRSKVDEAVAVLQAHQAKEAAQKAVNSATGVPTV
HIV Env fusion: inhibitors of HIV Env-mediated cell fusion; HeLa-JRFL Env/CEM21 cell fusion, luciferase; inhibition, % at 12.3 µM; 360,000 compounds, 1.1% hits;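 active = mean replicate inhibition score of at least 50 and every replicate individually at or above 50; inconclusive = only one of the two criteria met; inactive = mean below 50 and not all replicates reaching 50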;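 also: 0% = plate neutral controls and 100% = maraviroc near 300 nM; one replicate is shown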
MT1-MMP act inh: MT1-MMP (human) activation inhibition; P50281; HT1080 RFP-PRO-GFP cells, GFP/RFP ratio fluorescence, overnight; percent of plate control window, DMSO zero; GFP/RFP ratio change, % at 20 µM; 360,000 compounds, 0.061% hits;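 active = GFP/RFP ratio change of at least 30% with cell ATP level not reduced by more than half and red fluorescence within 50% of control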; also: strong numbers were not always called active
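Material: RFP-PRO-GFP reporter HT1080 cells. Dosing: single-point 20 µM compound, 1% DMSO. Controls: DMSO and RFP-L50D-GFP cell wells. Timing: cells overnight before dosing, compound overnight, 37 °C, 5% CO2. Measure: GFP/RFP fluorescence ratio.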
eIF4H inh: inhibitors of RNA binding by human eIF4H; Q15056; 290,000 compounds, 0.94% hits; inhibition, % at 35 µM; eIF4H fluorescence polarization binding assay;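 active = 50% or more with normal probe brightness, or confirmed in later tests; inconclusive = above 50% with abnormal brightness, or retests that disagree; inactive = below 50% or failed in later tests; about a fifth of its hits are not listed in these tables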;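 also: calls also rest on retests at 20 µM and on dose response follow-up; 0% = protein and probe with vehicle and 100% = probe without protein; strong numbers were not always called active; many hits fall short of the cut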
Rce1 inhib: inhibitors of yeast Ras-converting enzyme; Q03530; calls only; yeast membranes, quenched prenylated peptide cleavage fluorescence; AID 2563; 290,000 compounds, 0.27% hits;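 active = fall in fluorescence gain of 50% or more versus controls, with final raw signal at or below 3038400; inconclusive = same 50% fall but final raw signal above 3038400; inactive = fall in fluorescence gain under 50%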;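 also: plate controls were neutral control wells for no effect and wells lacking membranes for full effect; tested at 10 µM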
Target sequence (Q03530 whole entry, looked up): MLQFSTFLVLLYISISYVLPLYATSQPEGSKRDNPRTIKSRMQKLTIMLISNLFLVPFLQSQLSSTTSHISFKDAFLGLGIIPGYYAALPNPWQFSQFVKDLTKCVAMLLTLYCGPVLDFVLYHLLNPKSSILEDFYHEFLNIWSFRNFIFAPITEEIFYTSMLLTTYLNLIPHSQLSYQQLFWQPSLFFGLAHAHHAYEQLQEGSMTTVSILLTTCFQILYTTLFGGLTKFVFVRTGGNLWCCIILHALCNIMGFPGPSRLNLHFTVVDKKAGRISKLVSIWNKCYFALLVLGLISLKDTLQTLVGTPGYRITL
CSC inhib: blocks cancer stem cells. cancer stem cell-like cells viability, luminescence. inhibition, % at 7.5 µM. 300,000 compounds, 1.1% hits. AID 2717;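 active = mean at 75% or more and at least half the replicates too; inconclusive = mean and replicates disagree; tested in HMLE shEcad cells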;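 also: 0% = median of negative and 100% = median of positive control wells; the first replicate is given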
UUG fidelity: alters start codon recognition fidelity in yeast; activity score, % at 18.7 µM; S. cerevisiae UUG-firefly luciferase reporter, luminescence/redox ratio; 350,000 compounds, 0.13% hits;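 active = replicate mean at a twofold rise or more, about +100% in these data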;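 also: firefly luciferase made from a UUG start codon reports start codon fidelity; reporter light over untreated wells divided by growth signal over untreated wells; some hits fall short of that in this replicate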
eIF4H inh retest: recorded beside eIF4H inh, whose call it bears; inhibition, %; compound at 20 µM; confirmation average;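 mean of two retest wells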
PABP FP inh retest: second read-out of PABP FP inh, no call of its own (marks repeat the call); inhibition, %; compound at 20 µM; confirmation repeats;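 mean of two retest wells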
MT1-MMP act inh RFP: second read-out of MT1-MMP act inh, no call of its own (marks repeat the call); RFP signal change, %; measured here: RFP expression control read;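 0 = vehicle wells; hits needed this value within 50% of zero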
An asterisk follows results filed as active; i = inactive; ? = inconclusive; . = no result given. Some of the compounds tested; rates above refer to the full screens.

SMILES	PABP FP inh	HIV Env fusion	MT1-MMP act inh	MT1-MMP act inh RFP	eIF4H inh	Rce1 inhib	CSC inhib	UUG fidelity	others
Cc1c(O)ccc(C(=O)CN2CCN(c3ccccc3)CC2)c1O	4	-1	-2	2	11	i	3	-8
Cc1cccc(OCCNC(=O)c2ncn[nH]2)c1	1	.	1	0	9	i	31	-20
CC1CCC(NC(=O)C2CCC(CNS(=O)(=O)c3cccc4nsnc34)CC2)CC1 (stereo not drawn)	7	-4	0	0	-3	i	-3	-20
Cn1nc(C(F)(F)F)c(C(=O)Nc2ccc(F)cc2F)c1Sc1ccc(C(F)(F)F)cc1	-14	.	5	2	-2	i	.	-10
Cc1nnc(SCc2nnc(-c3ccccc3Br)o2)n1-c1ccccc1	-6	.	-3	3	-9	i	-6	-2
CCOc1ccccc1CNc1nc2ccccc2n1C	-2	8	8	2	-8	i	-2	-26
O=C(Nc1ccccc1)NC1CCCc2ccccc21 (stereo not drawn)	9	8	-5	1	-6	i	-17	.
COc1ccc(COC(=O)c2sc3nc4n(c(=O)c3c2C)CCC4)cc1	.	2	0	-1	.	i	-1	-16
Cc1ccc(S(=O)(=O)NCCC(=O)Nc2ccc(S(=O)(=O)NC(C)C)cc2)cc1	-7	7	-4	3	-24	i	-9	-8
Cc1nc2cc(C(F)(F)F)ccc2n1CCNc1nc(-c2cc(Cl)c(N)c(Cl)c2)cs1	-4	12	0	1	-14	i	-12	-16
Cc1ccc2[nH]c3c(c2c1)CN(C(=O)CN1CCN(c2ccccn2)CC1)CC3	?	-93	-21	3	?	i	-6	-6
CCOc1ccc(NC(=O)C2CCCN(S(=O)(=O)c3ccc4c(c3)CC(C)N4C(C)=O)C2)cc1 (stereo not drawn)	3	15	4	-5	-3	i	-9	-11
O=C(CSc1nnc(Cc2ccccc2)o1)NCCc1ccccc1	-4	.	1	3	-6	i	-12	-1
Cn1cccc1CC(=O)NNC(=S)NC(=O)c1ccc(F)cc1	22	0	6	12	9	i	3	.
CCC(=O)N1CCN(c2ccnc3cc(Cl)ccc23)CC1	-8	29	-4	-5	6	i	-10	.
C#CCOCCOCCOCCNc1nc(N2CCN(C(=O)[C@H]([C@@H](C)CC)n3cc([C@@H](N)Cc4ccc(O)cc4)nn3)CC2)nc(N2CCN(C(=O)[C@H](CCCCN)n3cc([C@@H](N)CC(C)C)nn3)CC2)n1	38	.	.	.	39	i	-12	.
Cc1ccccc1NC(=O)C1CCN(C(=O)NC2CCCCC2)CC1	6	2	-2	1	-11	i	-7	-7
CCCSc1nn2c(=O)c3ccccc3nc2s1	-6	.	9	1	-13	i	6	-19
Cn1c2c(c(=O)n(C)c1=O)C(C(F)(F)F)(C(F)(F)F)N=C(c1ccccc1Cl)N2	11	-2	-1	-3	-8	i	3	3
COC(=O)c1c(NC(=O)c2ccccc2)sc2c1CC(C)(C)OC2	-8	-27	1	-9	0	i	80*	.

The last 3 entries of the part before are carried over, then new ones follow.
SMILES	PABP FP inh	HIV Env fusion	MT1-MMP act inh	MT1-MMP act inh RFP	eIF4H inh	Rce1 inhib	CSC inhib	UUG fidelity	others
CCCSc1nn2c(=O)c3ccccc3nc2s1	-6	.	9	1	-13	i	6	-19
Cn1c2c(c(=O)n(C)c1=O)C(C(F)(F)F)(C(F)(F)F)N=C(c1ccccc1Cl)N2	11	-2	-1	-3	-8	i	3	3
COC(=O)c1c(NC(=O)c2ccccc2)sc2c1CC(C)(C)OC2	-8	-27	1	-9	0	i	80*	.
O=C(Nc1nnc(-c2ccc(Cl)cc2)o1)C1CCCCC1	0	-30	2	4	-5	i	11	-6
Cc1ccc(Nc2c3c(nc4ccccc24)CCC3)cc1	-14	29	3	-11	-14	i	2	94
C[C@H]1CN(S(=O)(=O)c2c(F)cccc2F)CCN1S(=O)(=O)c1ccc2c(c1)OCCO2	.	1	0	2	.	.	37	3
O=C(CSc1nc(-c2ccccc2)cs1)NCCCN1CCCC1=O	.	.	-6	-7	.	.	-22	9
Cc1c(N2C(=O)c3ccc(F)cc3C2=O)c(=O)n(-c2ccccc2)n1C	-6	-25	-2	2	-1	i	-12	-6
COc1cc(NC(=O)CCn2c(=S)[nH]c3ccccc3c2=O)cc(OC)c1OC	.	2	5	1	.	.	.	-7
COc1ccc(C(=O)Nc2c(Cl)cc(Cl)cc2C(=O)NCCN2CCOCC2)cc1	2	-68	-5	-2	-2	i	-4	-7
Cn1ccsc1=NC(=O)c1cc(S(=O)(=O)N2CCOCC2)ccc1Cl	.	-91	2	3	.	i	-12	.
CCOCC(=O)N1CCN(c2cccc(Cl)c2)CC1	1	20	3	1	2	i	-12	-11
O=C(N/N=C/c1ccc(C(F)(F)F)cc1)c1ccncc1	-1	5	0	-3	6	i	-6	3
Cc1cc(NC(=O)C2CC(=O)N(c3ccccc3Cl)C2)no1 (stereo not drawn)	2	-12	1	2	-6	i	3	-13
O=C(Cn1nnc(-c2ccc(CN3CCOCC3)cc2)n1)N1CCCc2ccccc21	8	38	4	4	-11	i	5	-13
CCOC(=O)C1(CCc2ccccc2)CCN(C(=O)c2occc2C)CC1	-2	-4	-4	-3	-6	i	-4	.
O=C(C1CCCN(S(=O)(=O)c2cccc3nsnc23)C1)N1CCc2ccccc21 (stereo not drawn)	-15	.	3	-5	-6	i	11	4
O=C(CSc1nnc(C2CC2)n1-c1ccccc1)NCCc1ccc(F)cc1	-2	.	-2	-2	-9	i	.	.
COc1ccc(C(=O)Nc2ccc(S(=O)(=O)NC(C)C)cc2)cc1	-4	24	2	-8	-6	i	17	-6
Cn1cc(CCNC(=O)CCc2nnc(CCCCc3ccccc3)o2)cn1	6	1	4	4	-1	i	-10	.
COc1cc(CN2CCc3ccccc3C2)cc([N+](=O)[O-])c1O	8	-6	3	2	7	.	-3	-25
O=C(NCC(=O)N(c1cccnc1)C(C(=O)NC1CCCC1)c1ccc(F)cc1)c1ccco1 (stereo not drawn)	-7	15	.	.	4	i	-17	.
O=C(O)C1CCN(c2ccc(S(=O)(=O)N3CCC(C(=O)O)CC3)cc2[N+](=O)[O-])CC1	17	-27	-3	3	0	i	16	-8
COC(=O)[C@H](CCSC)NC(=O)c1cccnc1SC	-7	-8	1	5	-6	i	3	.
Cc1ccc(S(=O)(=O)N2[C@@H](c3ccc(Cl)cc3)C(C(=O)O)=CC[C@H]2c2cccs2)cc1	.	-2	-3	3	.	.	12	-8
Cc1cc(C)nc(NS(=O)(=O)c2ccc(NC(=O)CSc3nc(-c4ccccc4)c(C#N)c(=O)[nH]3)cc2)n1	6	-1	-2	3	-4	i	-3	.
S=c1[nH]nc(Cc2noc3ccccc23)n1-c1ccc(Cl)cc1	7	2	-5	-1	1	i	-8	.
Cc1ccc(C(=O)NCCc2csc(-c3cccnc3)n2)cc1	-16	-19	0	1	0	i	-3	-17
CCCCN(CC)C(=O)c1cc2cc3ccc(OC)cc3nc2o1	-3	-85	.	.	-2	i	11	-5
CCCC(=O)Nc1ccc(S(=O)(=O)Nc2cc(OC)nc(OC)n2)cc1	4	10	-4	-1	-5	i	-18	-3
Cc1c(C(c2cccc(O)c2)c2c(C)n(C)n(-c3ccccc3)c2=O)c(=O)n(-c2ccccc2)n1C	5	.	1	4	8	i	-6	-17
N#Cc1c(SCC(=O)Nc2ccccc2C(F)(F)F)sc2c(O)cc(=O)[nH]c12	13	4	-1	5	7	i	2	.
C[C@H](NC(=O)c1nc[nH]c1C(=O)N[C@@H](Cc1ccccc1)C(=O)OCc1ccccc1)C(=O)OC(C)(C)C	0	-12	-1	0	7	i	-7	-3
Cc1ccc(Nc2nc(-c3sc(C)nc3C)cs2)cc1	9	-194	-9	-21	-7	i	63	-20
CCCn1nc(C(=O)Oc2ccc3c(C)cc(=O)oc3c2)c2ccccc2c1=O	-3	4	-4	-7	-4	i	8	-8
CCC(C)C(NC(=O)CCC(=O)OCC(=O)[C@@]1(O)CCC2[C@@H]3CCC4=CC(=O)C=C[C@]4(C)C3[C@@H](O)C[C@@]21C)C(=O)O (stereo partly drawn)	17	-81	-2	1	0	i	-6	4
CCOC(=O)C1CCCN(C(=O)Nc2cccc(Cl)c2)C1 (stereo not drawn)	-12	.	7	4	-7	i	-8	-12
Cc1c(Cc2c(C)n(C)n(-c3ccccc3)c2=O)c(=O)n(-c2ccccc2)n1C	4	-100	2	3	1	i	0	-20
COc1ccc(/C=C2\SC(=S)N(CCC(=O)Nc3cccc(C(=O)O)c3)C2=O)cc1	24	0	4	3	-5	i	-7	-40
CCOC(=O)CNC(=O)c1ccc2[nH]c3c(c2c1)CCCC3	5	.	1	2	-3	.	-6	-9
Cc1cc(C)nc(N(C#N)CCOc2ccccc2)n1	-8	-51	2	-2	-6	i	27	-2
CC(=O)Nc1ccc(NC(=O)c2ccc(COc3ccc(C)cc3)o2)cc1	1	-5	3	-2	-2	i	-3	-7
CCOc1ccccc1OCCCCOc1ccccc1F	-8	17	-2	-1	13	i	2	1

At a glance, part of the list above.
SMILES	PABP FP inh	HIV Env fusion	MT1-MMP act inh	MT1-MMP act inh RFP	eIF4H inh	Rce1 inhib	CSC inhib	UUG fidelity	others
Cc1cc(C)nc(N(C#N)CCOc2ccccc2)n1	-8	-51	2	-2	-6	i	27	-2
CC(=O)Nc1ccc(NC(=O)c2ccc(COc3ccc(C)cc3)o2)cc1	1	-5	3	-2	-2	i	-3	-7

Additional structures follow.
SMILES	PABP FP inh	HIV Env fusion	MT1-MMP act inh	MT1-MMP act inh RFP	eIF4H inh	Rce1 inhib	CSC inhib	UUG fidelity	others
O=C(NCC(=O)N1CCCC(C(F)(F)F)C1)c1ccccc1F (stereo not drawn)	.	-7	0	1	.	i	-14	-5
CCOc1ccc(S(=O)(=O)Nc2ccc(C(=O)NCc3ccncc3)cc2)cc1	.	.	2	1	.	.	-2	-16
Cc1ccc(S(=O)(=O)NCCNC(=O)c2ccccc2)cc1	0	.	3	-1	-1	i	-4	-8
CCOC(=O)N1CCC(N2Cc3cccc(C(=O)Nc4ccc(S(=O)(=O)N(CC)CC)cc4)c3C2=O)CC1	18	13	-1	0	38	i	.	-1
O=C(Nc1ccnn1C1CCN(C/C=C/c2ccccc2)CC1)c1ccccc1	-4	.	2	1	83	i	-10	-7	eIF4H inh retest=-13;PABP FP inh retest=3
CCOC(=O)C1=Nc2ccccc2C1=[N+]=[N-]	2	.	-11	-19	-2	i	-4	.
O=C1c2ccccc2C(=O)N1CCn1c(=O)oc2ccccc21	-8	.	3	1	-6	i	-8	2
CCOc1ccc(S(=O)(=O)NCCC(=O)Nc2ncccc2C)cc1	-10	-1	-3	2	-20	i	5	-4
COc1ccc(Nc2nc(NN)nc(Nc3ccc(OC)cc3)n2)cc1	4	-16	0	1	16	i	.	-16
CCN(CC)CCNC(=O)c1ccc(NC(=O)/C=C/c2cc(OC)c(OC)c(OC)c2)cc1	-1	?	4	2	5	i	.	-3
O=C(c1ccc([N+](=O)[O-])cc1Cl)N1CCN(c2ccccn2)CC1	-5	8	5	0	-3	.	-10	.
O=C1CC(c2ccccc2)CCc2sccc2N1 (stereo not drawn)	-1	-10	2	2	-6	i	.	-15
O=C(Nc1nnc(C2=COCCO2)o1)c1ccc(S(=O)(=O)N2CCCC2)cc1	-8	3	3	4	0	i	7	.
O=C(Nc1cccc(C(=O)N2CCN(c3cccc(Cl)c3)CC2)c1)c1ccccc1	-1	1	-6	-8	-8	i	23	.
COCC(C)NCc1cccc([N+](=O)[O-])c1 (stereo not drawn)	4	.	-2	3	4	i	-2	-4
O=c1c(Br)ccc(Br)cc1Br	.	25	-5	-1	.	.	.	7
